D2 PAM: potentiates the human D2 dopamine receptor allosterically. potentiation, % (no concentration beside the values). DiscoveRx D2 beta-arrestin cells, luminescence, 90 min; 100% = 57 uM dopamine signal. AID 624464. hit rate 0.23% among 360,000; active = potentiation of 50% or more; inconclusive = 30% to 50%; inactive = 30% or less;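 further: compound concentration not given in the record; tested on top of an EC20 dose of dopamine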
Target sequence (P14416 whole entry, looked up): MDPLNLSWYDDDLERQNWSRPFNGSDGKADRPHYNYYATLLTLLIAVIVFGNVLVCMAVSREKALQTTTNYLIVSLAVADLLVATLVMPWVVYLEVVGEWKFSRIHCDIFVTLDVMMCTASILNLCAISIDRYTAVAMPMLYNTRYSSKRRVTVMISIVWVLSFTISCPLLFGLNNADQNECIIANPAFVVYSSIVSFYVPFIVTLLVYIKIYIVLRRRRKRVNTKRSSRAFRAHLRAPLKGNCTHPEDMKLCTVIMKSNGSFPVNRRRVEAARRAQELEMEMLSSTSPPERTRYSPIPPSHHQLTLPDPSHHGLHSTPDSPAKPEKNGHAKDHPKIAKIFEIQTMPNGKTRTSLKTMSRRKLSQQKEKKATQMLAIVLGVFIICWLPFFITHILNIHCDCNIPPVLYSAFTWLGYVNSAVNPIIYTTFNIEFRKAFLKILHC
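PathHunter D2 cells, attached overnight at 37 deg C, received compound in DMSO plus dopamine at EC20 (50 nM final) for 90 min at 37 deg C. Beta-arrestin recruitment was read as luminescence after 1 h with detection reagent at ambient temperature.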
TRPV1 potentiator: potentiators of human vanilloid receptor 1 (TRPV1); Q8NER1; TRPV1-expressing cells, Fluo-8 calcium influx, capsaicin EC20 potentiation; host cell line not named in the record; control for the full effect not named in the record; potentiation, % at 8.33 µM; hit rate 0.02% among 320,000; AID 540277; active means potentiation above 80%; inconclusive means 30% to 80%; inactive means below 30%; further: 0% is about no effect
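TRPV1-expressing cells were cultured overnight at 35.5C and loaded with Fluo-8 calcium dye for 40 to 90 min at room temperature. After a 10 s baseline, compound was added and calcium influx was read kinetically for 3 min (ex 480/em 520 nm).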
CtBP-E1A blk: inhibitors of CtBP/E1A interaction; AlphaScreen GST-E1A/His-CtBP binding, 1536-well; active compounds read low; control for the full effect not named in the record; activity change, % (test concentration not listed); hit rate 0.49% among 340,000; in the data active means activity change below about -65%; inconclusive means about -30% to -65%; inactive means above about -30%; further: on the % scale 0 is the no-effect control and ±100 the full control effect
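In 5 uL wells, 23 nL compound meets equimolar GST-E1A and His-CtBP (5X stock 125 nM each) for 2 h, 37 °C. Beads (5X, 50 ug/mL) then 1 h, 37 °C, dark.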
D2 ag: agonists of human D2 dopamine receptor (beta-arrestin). P14416. DiscoveRx PathHunter D2 beta-arrestin, luminescence, 90 min; 100% = 57 uM dopamine signal. activation, % (test concentration not listed). hit rate 0.084% among 360,000; in the data active = activation above about 40%; inconclusive = about 15% to 40%; inactive = below about 15%; further: compound concentration not given in the record; the text of the record calls up to 30% inactive
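DiscoveRx PathHunter D2 beta-arrestin cells (2,100/well) attached overnight, then compound-stimulated 90 min at 37 C in HBSS/10 mM HEPES/0.1% Tween-20 buffer; beta-galactosidase complementation read by luminescence after 1 h at ambient temperature. Dopamine 57 uM final (EC100) as control.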
PINK1 expr mod: changes PINK1 expression; PINK1 immunofluorescence, high-content cytometry, 24 h; Potency, µM (series often up to 76.6 µM), for inactives: at the highest dose activation (PINK1 increase), actives largely listed as activators; hit rate 0.2% among 410,000; active = well fitted activation curve with a large enough effect; inconclusive = small, poorly fitted or top-dose-only effect; inactive = flat fitted curve, though single readings scatter; cell line not stated here;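 further: potency means the concentration at half of the fitted maximal effect; % of control where 0% means no effect; nearly all actives have a fitted effect of over 65% in size; a mitochondrial uncoupler was the plate control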
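Fluorescence from anti-PINK1 antibody, together with nuclear and cell stains, was scanned on a laser-scanning cytometer. Before staining, stable-line cells were incubated 24 hours with compounds at 5 concentrations; primary antibody 12 h at 10 degrees C.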
Sfp PPTase inh: Sfp phosphopantetheinyl transferase inhibition; Q9F4F7; Biochemical Sfp PPTase activity, qHTS; Potency, µM, for inactives: max response, negative = inhibition, usual class: inhibitors; hit rate 3.5% among 310,000; AID 1490; active means well fitted inhibition curve with a large enough effect; inconclusive means small, poorly fitted or top-dose-only effect, or another doubt; inactive means no such curve, though single readings can be large or run the other way;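 further: the enzyme is Sfp with the accession as filed and its product quenches rhodamine fluorescence; potency means the concentration at half of the fitted maximal effect; 0% = enzyme reaction without inhibitor and -100% = no enzyme wells; top concentration of the series not given in the record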
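Buffer: 50 mM Hepes-Na pH 7.6, 10 mM MgCl2, 0.01% Nonidet P-40, 0.01% BSA. Enzyme 15 nM, pre-exposed to compound 15 min; substrates then added and fluorescence change tracked over 30 min.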
Six1-Eya2 blk: Six1/Eya2 interaction inhibition. AID 651725. AlphaScreen GST-Six1/His-Eya2 binding, biochemical; active compounds read low; control for the full effect not named in the record. activity change, % (concentration not given with the values). hit rate 0.56% among 360,000. Q15475+O00167; in the data active = activity change below about -65%; inconclusive = about -30% to -65%; inactive = above about -30%; further: on the % scale 0 is the no-effect control and ±100 the full control effect
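Compounds are tested against tagged Six1 and Eya2 proteins bridged by glutathione donor and nickel acceptor beads; after a one-hour incubation at 37 °C without light, AlphaScreen emission is recorded.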
Numbers without * were called inactive; ? = inconclusive; nt = no result given; & = joins results of further samples; [ ] = another dose, or the depositor's remark.

SMILES | D2 PAM | TRPV1 potentiator | CtBP-E1A blk | D2 ag | PINK1 expr mod | Sfp PPTase inh | Six1-Eya2 blk
Cc1c(NC(=O)C(C)OC(=O)c2cccnc2Cl)c(=O)n(-c2ccccc2)n1C (centres undefined) | -2 | 15 | 3 | 6.1 | -1.3% | nt | -2
CCS(=O)(=O)c1ccc2c(c1)N(S(C)(=O)=O)CC(C(=O)NCc1ccccc1OC)O2 (centres undefined) | -8 | -6 | 4 | -3.4 | 2.5% | 2% | -3
CC(C)NCC(O)COc1ccc(COCCOC(C)C)cc1 (centres undefined) | -6 | nt | 1 | -4.5 | 0.6% | -1%&20% | 5
Cc1cc(SCCOc2ccccc2)nc(N)n1 | -5 | -15 | 8 | 0.6 | -4.3% | -17% | 3
CCCCOC(=O)CCN1C(=O)/C(=C2\SC(=S)N(CCC(=O)OCCCC)C2=O)SC1=S | 17 | -4 | 12 | 0.7 | 11% | 0% | 23
O=c1c2ccccc2[nH]c2ccccc12 | -20 | -1 | 9 | -0.5 | 0.9% | -6% | 2
CC1CC(=O)Nc2ccccc2N1C(=O)Nc1ccc(F)cc1F (centres undefined) | -15 | 0 | nt | -4.3 | -0.2% | 10% | 6
COc1ccc(OC)c(CN2CCN(C(=O)CCNC(=O)c3ccc(Br)cc3)CC2)c1 | -1 | 6 | 0 | 1.5 | 3.3% | nt | -17
NC(=O)c1ccccc1OCC(=O)c1ccc(Cl)cc1 | -16 | 13 | 2 | 12 | -1.4% | -8% | -19
O=C(Nc1nc2ccccc2[nH]1)c1cccc(S(=O)(=O)N2CCOCC2)c1 | 10 | -26 | ? | -0.2 | 1.8% | -1% | ?
CN(C)Cc1cc(CCNC(=O)c2ccc(Cl)cc2)ccc1O | -9 | 6 | -1 | 0.2 | -2.2% | 1% | -7
COC(=O)c1c(C)oc(C)c1S(=O)(=O)Nc1ccc(C(C)C)cc1 | -6 | ? | 6 | 0.2 | 1.8% | 5% | 4
CC1CCCC(NC2CCCCNC2=O)C1 (centres undefined) | -8 | 7 | 11 | -2.4 | -7.2%[38.3 µM] | 11% | 4
O=C(CN1C(=O)COc2ccccc21)N(Cc1cccnc1)Cc1ccccc1F | -6 | 11 | 6 | -2.6 | -3.9%[38.3 µM] | 8% | -1
O=C(CSc1nc2ccccc2c(=O)n1CCCN1CCOCC1)Nc1ccc(Br)cc1 | -14 | nt | -3 | -4.5 | -1.7% | nt | -9
Cc1cc(=O)n2nc(N3CCC(C(=O)NC(C)c4ccccc4)CC3)sc2n1 (centres undefined) | 3 | -4 | ? | -2.2 | -2.6% | 12% | -18
COc1cccc(/C=N/n2c(N)nc3ccccc32)c1OC | 1 | -4 | 7 | -2.6 | -3.3%[38.3 µM] | 3% | -2
Cc1cccc(C2Nc3ccccc3C(=O)N2NC(=O)c2ccc([N+](=O)[O-])cc2)n1 (centres undefined) | 21 | -6 | -2 | 2.4 | -0.9% | 11% | 14
CC(=O)n1nc2nc(C)cc(C)c2c1N | -7 | 4 | 2 | -2.1 | 0.8%[38.3 µM] | 23% | -1
COc1ccccc1OCC(=O)NCc1cccs1 | -10 | 5 | -9 | -0.4 | -5.4% | 15% | 2

Ordered by value in Sfp PPTase inh (lowest first): 3 of the compounds above.
structure	D2 PAM	CtBP-E1A blk	D2 ag	PINK1 expr mod	Sfp PPTase inh	Six1-Eya2 blk
CN(C)Cc1cc(CCNC(=O)c2ccc(Cl)cc2)ccc1O	-9	-1	0.2	-2.2%	1%	-7
COc1cccc(/C=N/n2c(N)nc3ccccc32)c1OC	1	7	-2.6	-3.3%[38.3 µM]	3%	-2
O=C(CN1C(=O)COc2ccccc21)N(Cc1cccnc1)Cc1ccccc1F	-6	6	-2.6	-3.9%[38.3 µM]	8%	-1

Quoted from the entries so far (3 entries):
SMILES | D2 PAM | TRPV1 potentiator | CtBP-E1A blk | D2 ag | PINK1 expr mod | Sfp PPTase inh | Six1-Eya2 blk
Cc1cccc(C2Nc3ccccc3C(=O)N2NC(=O)c2ccc([N+](=O)[O-])cc2)n1 (centres undefined) | 21 | -6 | -2 | 2.4 | -0.9% | 11% | 14
CC(=O)n1nc2nc(C)cc(C)c2c1N | -7 | 4 | 2 | -2.1 | 0.8%[38.3 µM] | 23% | -1
COc1ccccc1OCC(=O)NCc1cccs1 | -10 | 5 | -9 | -0.4 | -5.4% | 15% | 2

(more compounds)
SMILES | D2 PAM | TRPV1 potentiator | CtBP-E1A blk | D2 ag | PINK1 expr mod | Sfp PPTase inh | Six1-Eya2 blk
CC(C)C(NC(=O)C1CCCCC1)C(=O)NC1=NCCS1 (centres undefined) | -6 | 0 | -6 | -2.5 | 1.2% | 17% | 2
COc1ccccc1NC(=O)C(=O)NCCCN1CCCC1=O | -48 | 19 | 3 | -4.9 | 0.4% | nt | 2
CCOc1ccc(NC(=O)C(=O)NCCN2CCN(C(=O)c3ccc(C)cc3)CC2)cc1 | -18 | 1 | 6 | 1.2 | -1.9% | 20% | 2
CCOC(=O)C1=C(COC(=O)[C@@H](NC(=O)c2cccc(C)c2)C(C)C)NC(=O)NC1C (some centres undefined) | 2 | nt | 0 | 3.9 | 0.5% | nt | 0
Cc1cccc(C)c1OCC(O)CN1CCN(c2ccccn2)CC1 (centres undefined) | ? | 3 | 10 | ? | 1.3% | 17% | 5
COc1ccc(C2CC(c3ccccc3)=NN2C(=O)CSc2ncn[nH]2)cc1 (centres undefined) | -10 | -18 | -1 | 1.4 | 0.7% | 6% | -6
Oc1ccc(/C=N/n2c(-c3ccccc3)n[nH]c2=S)cc1Br | -50 | -4 | nt | 1.5 | -0.7% | -26% | -4
N#CCC(=O)Nc1ccc(C(=O)NCc2ccccn2)cc1 | -17 | -2 | nt | -4.5 | -0.2% | 8% | 6
COc1ccc(C(=O)Oc2ccc3c(C)cc(=O)oc3c2C(C)=O)cc1 | -11 | -2 | -16 | -3.2 | -0.7% | 5% | -12
O=C1CN(c2nc(-c3ccccc3)c3ccccc3n2)c2ccccc2N1 | -3 | -8 | 2 | -3.0 | 17% | 2% | 6
COCCN(C(=O)C1CC1)c1nnc(-c2cccc(C)c2)s1 | -7 | -18 | 6 | -4.0 | 0.1% | -3% | 6
O=C(Nc1cccc(S(=O)(=O)Nc2ccc(Cl)cc2)c1)c1ccc(Cl)nc1 | 0 | -2 | -6 | -0.3 | ? | 11% | -3
CCOc1ccc(NC(=O)c2cccnc2C(=O)O)cc1 | -9 | 13 | -8 | 1.2 | 0.2%[38.3 µM] | 56µM* | -2
CCOc1ccc(-c2c(=O)n(OCC)c3ccccc3[n+]2[O-])cc1 | 2 | 6 | 0 | 11 | -0.4% | 14% | -2
Cc1ccc(Oc2ncccc2/C=N/OCc2ccc(Cl)cc2Cl)cc1 | -22 | 14 | 14 | -1.3 | 7.0% | 9% | -3
CCNC(=S)Nc1nc2c(cc1C(=O)OCC)CCCC2 | -3 | 1 | -2 | -4.2 | -1.0% | 1% | 8
COc1ccc(C(=O)Nc2cnn(Cc3ccc(Cl)cc3)c2)cc1OC | -1 | -1 | -7 | -4.0 | 11% | 29% | 1
C=CCn1c(COC)nnc1SCC(=O)c1ccc(F)cc1 | 0 | nt | 1 | 0.4 | 2.7%[38.3 µM] | ? | -1
O=C(CCc1nc2ccccc2c(=O)[nH]1)NNC(=O)COc1ccc(Br)cc1 | -26 | 5 | 1 | -7.0 | 3.3% | nt | -5
O=c1ccnc(Sc2ncccc2[N+](=O)[O-])[nH]1 | 11 | -4 | 12 | 0.4 | -0.7% | -8% | 8
COc1ccc(Br)cc1/C=N/N1CCN(Cc2ccccc2Cl)CC1 | -6 | 8 | -1 | 0.5 | 3.1% | 12% | -22
Cc1ccc(C(c2nnnn2CCc2ccccc2)N2CCSCC2)cc1 (centres undefined) | -11 | 25 | 1 | -10 | -0.7% | -8% | -8
Cc1nn(-c2nnc(NC3CCCCC3)nn2)c(C)c1Br | 28 | -3 | -23 | 1.1 | 7.2% | 3% | -12
CCOC(=O)Cc1cnc(NC(=O)CSc2nc3ncnc(N)c3[nH]2)s1 | 1 | 15 | -3 | 0.0 | 17% | 1% | -11
O=C(CCc1ccccc1)NNC(=O)C1CCCCC1 | -8 | -5 | 7 | -2.3 | 21%[38.3 µM] | 23% | 6
O=S(=O)(NCc1csc(-c2cccs2)n1)c1ccccc1 | -9 | 1 | -1 | 3.2 | 0.7% | 14% | 8
COC(=O)c1cc(-c2ccccc2)sc1N | 3 | 1 | -16 | -0.4 | -0.2% | 40µM* | -27
CC(C)Oc1ccc(-c2cc(=O)[nH]c(=O)[nH]2)cc1 | 8 | -1 | 6 | -1.6 | -0.3% | 27% | 5
COC1=C(Nc2ccc(OC)cc2)C(=O)C(OC)=C(Nc2ccc(OC)cc2)C1=O | -4 | nt | -11 | 3.6 | -1.5% | nt | -4
CCCCCCCCCOC(=O)C1N2C(=O)[C@@H](NC(=O)COc3ccccc3)[C@H]2SC1(C)C (some centres undefined) | -13 | nt | nt | -1.2 | 5.3% | nt | -3
CCOC(=O)Cc1csc(SCC(=O)Nc2cccc(C#N)c2)n1 | -11 | -3 | 3 | -3.7 | 1.1%[38.3 µM] | 10% | -1
COc1ccc(CCNC(=O)c2coc3ccccc3c2=O)cc1OC | -3 | -21 | -5 | -0.7 | 1.9% | -1% | -14
CC(=Nc1ccccc1)C1=C(O)CC(C)(C)CC1=O | -4 | -2 | 7 | -3.2 | 1.5% | 7% | 10
Cc1ccc(/C=N/n2c(C)cc(C)c(C#N)c2=O)cc1 | -2 | 0 | 48 | -1.2 | 14%[38.3 µM] | 3% | 33
CCOC(=O)C(=O)N1CCC(C(=O)OCC)CC1 | -5 | ? | 0 | -3.5 | -0.4% | 1% | 2
COc1ccc(C(=O)Nc2ncc3c(n2)-c2ccccc2CC3)cc1 | -13 | -21 | -7 | -3.2 | 4.6%[38.3 µM] | 8% | -4
Cc1nc2ccccc2n1C1CCN(CC(=O)Nc2ccccc2Br)CC1 | -4 | -13 | 0 | 12 | -0.6% | 19% | -1
CCS(=O)(=O)N1CCC(C(=O)Oc2ccc(C(=O)OC)cc2)CC1 | 4 | 1 | 17 | -4.8 | 3.2% | 9% | 1
COCCC(=O)N1CCC(Oc2ccc(C(=O)N(C)CCCC3CCCC3)cc2)CC1 | -5 | 25 | 2 | 2.6 | -0.6% | 14% | 2
O=C1CSC(c2cccc([N+](=O)[O-])c2)N1Cc1ccccc1 (centres undefined) | -3 | -34 | -5 | 7.3 | -0.5% | 16% | -5
CC1(C)CC(=O)C/C(=N/NC(=O)COc2ccc(Cl)cc2Cl)C1 | -12 | 6 | 2 | -2.9 | 4.7% | 14% | 9
CC(C)NC(=O)c1ccc(CS(=O)(=O)c2ccc(Br)cc2)o1 | -1 | nt | 7 | 5.0 | 0.4% | 11% | 7

Compound activity (PubChem)
